Compound activity (PubChem BioAssay)
CDC25B CDK2 inh: human CDC25B-CDK2/CyclinA binding inhibition; P30305+P24941; HTRF CDC25B-CDK2/CyclinA binding, anti-His/anti-Flag; stronger effect = higher value; z-score (test concentration not listed); 0.72% of 94,000 active;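 further: score is relative to mean and SD of negative controls; strong numbers were not always called active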
HIV TAR-Tat: HIV-1 TAR-Tat binding disruption. HIV-1 TAR RNA, Tat peptide displacement FRET; stronger effect = higher value. z-score (concentration not given with the values). 0.6% of 100,000 active. AID 1259389;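 further: score is relative to mean and SD of negative controls; some compounds called inactive have numbers as strong as hits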
* = called active by the depositor; nt = no result given.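 How the source made its calls: active means z-score from 3 up in half or more of its runs; inactive means the rest.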

The first 14 entries as a preview:
SMILES	CDC25B CDK2 inh	HIV TAR-Tat
Cc1cc(Nc2nc3ccccc3n3c(C)nnc23)ccc1Br	-0.87	-0.28
COc1ccc(Br)cc1C1C(C(=O)OC2CCCCC2)=C(C)NC2=C1C(=O)CCC2 (centres undefined)	-2.1	-1.6
CCOc1ccc(C2CC(=O)NC(SC)=C2C#N)cc1 (centres undefined)	0.23	1.2
CCOc1ccc(C2CC(=O)NC3=C2C(=O)CC(C)(C)C3)cc1OCC (centres undefined)	-0.22	0.61
CCOC(=O)Cn1ncn2c(nc3ccccc32)c1=O	-0.58	-0.29
O=C(O)C1CCN(C(=O)c2cc3sccc3n2Cc2ccc(F)cc2)CC1	-1.2	nt
O=C(NC(=S)NNc1ncc(C(F)(F)F)cc1Cl)c1cccs1	-1.3	nt
Cc1cccc(-c2nc(COc3ccccc3-c3nnc(-c4ccccc4)o3)c(C)o2)c1	nt	0.89
CCOC(=O)c1cnc(SCc2nc(-c3ccccc3Cl)oc2C)nc1N	nt	-0.75
N#Cc1nc(-c2ccc(COc3ccc(Cl)cc3)o2)oc1NC1CC1	-1.5	0.92
Cc1ccc(-c2cc(C(=O)Nc3sc4c(c3C(=O)NCC3CCCO3)CCCC4)no2)cc1F (centres undefined)	1.9	0.65
CN(Cc1nc(-c2ccc(Cl)cc2)no1)C(=O)NC1CCCCC1	-0.98	1.7
CCCc1nn2c(=O)cc(COC(=O)COc3ccc(C)cc3)nc2s1	nt	-0.01
CCC1CCCCN1Cc1cn2c(-c3ccc(Br)cc3)nnc2s1 (centres undefined)	nt	0.5

This part in full, previewed entries included:
SMILES	CDC25B CDK2 inh	HIV TAR-Tat
Cc1cc(Nc2nc3ccccc3n3c(C)nnc23)ccc1Br	-0.87	-0.28
COc1ccc(Br)cc1C1C(C(=O)OC2CCCCC2)=C(C)NC2=C1C(=O)CCC2 (centres undefined)	-2.1	-1.6
CCOc1ccc(C2CC(=O)NC(SC)=C2C#N)cc1 (centres undefined)	0.23	1.2
CCOc1ccc(C2CC(=O)NC3=C2C(=O)CC(C)(C)C3)cc1OCC (centres undefined)	-0.22	0.61
CCOC(=O)Cn1ncn2c(nc3ccccc32)c1=O	-0.58	-0.29
O=C(O)C1CCN(C(=O)c2cc3sccc3n2Cc2ccc(F)cc2)CC1	-1.2	nt
O=C(NC(=S)NNc1ncc(C(F)(F)F)cc1Cl)c1cccs1	-1.3	nt
Cc1cccc(-c2nc(COc3ccccc3-c3nnc(-c4ccccc4)o3)c(C)o2)c1	nt	0.89
CCOC(=O)c1cnc(SCc2nc(-c3ccccc3Cl)oc2C)nc1N	nt	-0.75
N#Cc1nc(-c2ccc(COc3ccc(Cl)cc3)o2)oc1NC1CC1	-1.5	0.92
Cc1ccc(-c2cc(C(=O)Nc3sc4c(c3C(=O)NCC3CCCO3)CCCC4)no2)cc1F (centres undefined)	1.9	0.65
CN(Cc1nc(-c2ccc(Cl)cc2)no1)C(=O)NC1CCCCC1	-0.98	1.7
CCCc1nn2c(=O)cc(COC(=O)COc3ccc(C)cc3)nc2s1	nt	-0.01
CCC1CCCCN1Cc1cn2c(-c3ccc(Br)cc3)nnc2s1 (centres undefined)	nt	0.5
CC1(C)Cc2c(sc3[nH]c(=S)n(-c4cccc(Br)c4)c(=O)c23)CO1	2.1	nt
O=C(Nc1nc(-c2cccs2)ns1)c1ccccc1	0.2	-0.13
Cc1ccc(-c2n[nH]c3c2C(c2ccccc2Cl)NC3=O)cc1 (centres undefined)	nt	2.8
CN(C)C1=NS(=O)(=O)c2ccccc21	0.98	1.8
Cc1ccc(S(=O)(=O)N2CCOCC2)c(C)c1	-1.1	0.28
O=S1(=O)C[C@H](N2CCN(c3ccc(F)cc3)CC2)[C@@H](S(=O)(=O)c2ccc(Cl)cc2)C1	-1.7	0.38
CCCC12CN(C(C)=O)CC(CCC)(CN(C(C)=O)C1)C2=O	-0.96	nt
CN1C(=O)c2cc(C(=O)NCc3cccs3)nn2CC1(C)C(=O)NC1CCCC1 (centres undefined)	nt	1.3
Cc1ccc(C(=O)c2cnc3cc4c(cc3c2N2CCC(C(N)=O)CC2)OCO4)cc1C	2.7	17*
Cn1c2ccccc2c2cnn(CC(=O)Nc3ccc(Cl)cc3)c(=O)c21	-0.52	-0.55
CCC(C)N1C(=O)c2cc3occc3n2CC1(C)C(=O)NC1CCCCC1 (centres undefined)	nt	1.4

Continued:
SMILES	CDC25B CDK2 inh	HIV TAR-Tat
Cc1c(C#N)c(NC(=O)c2ccc(Cl)cc2)n(Cc2cccnc2)c1C	-1.3	nt
COCCNc1nc2ccccc2n2cnnc12	-0.35	nt
Cc1ccc(S(=O)(=O)Nc2c(-n3cnnc3)nn(C)c2C)c(C)c1	-0.98	1.5
CC(=NCCc1c[nH]c2ccccc12)C1=C(O)c2ccccc2C1=O	-3.7	nt
CCC(C)NC(=O)Cn1nc(-n2cccc2)c2c(C)cc(C)nc21 (centres undefined)	nt	0.32
Cc1ccc(CNC(=O)C2=Cc3cc(Br)ccc3OC2)o1	nt	-0.24
CN(C)S(=O)(=O)c1cccc(C(=O)NCc2ccco2)c1	-1.8	nt
O=C(NCc1ccccn1)C1c2ccccc2C(=O)N(C2CCCC2)C1c1cccs1 (centres undefined)	nt	-0.65
O=C(Cn1ncc2c(=O)oc3ccccc3c21)Nc1cc(F)ccc1F	-1.1	-0.06
Cc1ccc2ccc(C(Nc3ccccn3)c3ccc(Cl)cc3)c(O)c2n1 (centres undefined)	-2	-0.35
Cc1oc(-c2ccccc2)nc1CSc1nc2c(c(=O)[nH]1)CCC2	-2	0.66
COc1ccc(NS(=O)(=O)c2cc(-c3noc(C)n3)cs2)cc1Cl	nt	1.2
O=c1[nH]c(CN2CCCCC2)nc2c1oc1ccccc12	0.71	3.3
COc1ccc(NS(=O)(=O)c2ccc(C(=O)N3CCCC3)s2)cc1Cl	nt	2.2
CCc1ccc(NC(=O)Cn2nc3c4scc(-c5ccc(C)cc5)c4ncn3c2=O)cc1	nt	1.1
Cn1c(=O)c2nc(-c3ccc(C(C)(C)C)cc3)oc2c2ccccc21	-0.2	nt
O=c1[nH]c(SCCOc2ccccc2)nc2c1CCCC2	1.1	2.3
CS(=O)(=O)c1cc(C(F)(F)F)cc(S(C)(=O)=O)c1S(C)(=O)=O	-1	nt
O=c1[nH]cnc2c(-c3ccc(Br)cc3)noc12	-1.6	-2.4
Fc1cc(F)cc(-c2noc3ncnc(NC4CC4)c23)c1	nt	0.47
Cc1ccc(-c2nc(NC(=O)c3c(C)noc3C)sc2C)cc1Cl	-0.68	nt
Cn1nc(C(=O)NCCN2CCc3ccccc3C2)c2c1-c1ccccc1OC2	-0.53	0.87
O=C(NCCc1c[nH]c2ccccc12)c1sc2ncccc2c1-n1cccc1	nt	0.61
Cc1ccc2oc(=O)c3cnn(CC(=O)N(C)c4ccc(C)c(C)c4)c3c2c1	-2.7	nt
Cc1ccc(-c2nc(C)c(CCNS(=O)(=O)c3ccc(C)c(C)c3)s2)cc1	nt	0.81

Going on with the list:
SMILES	CDC25B CDK2 inh	HIV TAR-Tat
O=C(Nc1ccc(F)cc1)N1CC=C(c2c[nH]c3ccccc23)CC1	nt	-6.4
Cc1c(C)c2ccc(OC(C)C(=O)O)cc2oc1=O (centres undefined)	1.2	nt
COc1cccc(-c2noc(Nc3ccc4c(c3)OCCO4)n2)c1	nt	-0.81
O=C(Nc1ccccc1)N1Cc2cccn2-c2ccccc21	-0.49	-1.6
CCCCN(C)C(=O)Cn1ncc2c(C)n(Cc3ccc(C)cc3)c(C)c2c1=O	-1.8	2.5
CC1=C(c2ccc(F)cc2)S(=O)(=O)N=C1Nc1cc(C)cc(C)c1	nt	0.97
CCOC(=O)c1ccc(NC2SC(=O)N(Cc3ccc(C)cc3)C2=O)cc1 (centres undefined)	-0.38	nt
CC1(C)Cc2c(sc3nc(SCc4ccc(Cl)cc4)nc(N)c23)CO1	-1.2	0.69
COc1ccc(-[n+]2cc([O-])on2)cc1	-1.7	1.1
Cc1ccc(-c2coc(-c3ccc(N)cc3)n2)cc1	nt	0.81
CCOC(=O)C1=C(C)Nc2nnnn2C1c1ccc(OC)cc1OC (centres undefined)	-0.5	-0.77
CCCSc1nc(N2CCOCC2)c2c(c1C#N)CC(C)(C)OC2	0.78	nt
Cc1nc(C(F)(F)F)ccc1C(=O)N1C=CC(C(F)(F)F)=NCC1	-0.3	nt
O=C1c2ccccc2C(Nc2ccccc2)N1c1ccc(Cl)cc1 (centres undefined)	-2.1	2.6
COC(=O)C(C(=O)OC)c1ncccc1[N+](=O)[O-]	-2.3	nt
COc1cc(C2C(C(=O)c3ccc(C)o3)=C(O)C(=O)N2Cc2cccnc2)ccc1O (centres undefined)	-2.4	1.4
Cc1cc2c(cc3c(SCc4ccc(Cl)cc4)nncn32)o1	nt	1.2
O=C(CSc1nnc(Cn2c(=O)sc3ccccc32)n1-c1ccccc1)N1CCOCC1	-1.6	nt
Brc1ccc2c(c1)c(-c1ccccc1)nc1nnnn12	0.12	1.7
N/C(=N\OC(=O)Nc1ccccc1)c1nccnc1Sc1ccc(Cl)cc1	-0.72	nt
CN(C)c1ncc(C(=O)Nc2cccnc2)cn1	nt	1.5
CCCCNC(=O)Cn1nnc2sc3c(c2c1=O)CCCC3	-1.4	1.1
C#CCN1C(=O)C(O)(CC(=O)c2ccc(OC)cc2OC)c2ccccc21 (centres undefined)	-1.9	-1.3
Cc1c(C(=O)N2CCCCC2)c(S(=O)(=O)Nc2ccc(Cl)cn2)c(C)n1C	nt	1.5
O=C(NC1(C(F)(F)F)N=C2SCCN2C1=O)c1cccs1 (centres undefined)	0.21	nt

(listing goes on)
SMILES	CDC25B CDK2 inh	HIV TAR-Tat
COc1ccc(OC)c(S(=O)(=O)NCCc2csc3nc(-c4ccccc4)nn23)c1	nt	0.79
COC(=O)C1C(c2ccc(N(C)C)cc2)C(C(=O)OC)S(=O)(=O)CS1(=O)=O (centres undefined)	-1.1	nt
CSc1ccc(CNC(=O)c2ccc(CN3C(=O)CSc4ncccc43)cc2)cc1	nt	-0.66
Cc1[nH]nc(-c2ccc(S(=O)(=O)Nc3cccc(Cl)c3C)s2)c1C	nt	-0.55
O=C1CC(c2nc3ccccc3[nH]2)CN1c1cccc2ccccc12 (centres undefined)	nt	1.9
Cc1ccc(S(=O)(=O)Nc2c(C)nc3nc[nH]n3c2=O)cc1C	0	2.3
O=C(NCc1cccc(Cl)c1)C(=O)NC1CCCCNC1=O (centres undefined)	-0.85	nt
C=CCN1C=C(OC(=O)c2ccc(C)cc2)c2ccccc2S1(=O)=O	1.7	0.64
Cc1ccc2c(c1)sc1ncc(NC(=O)c3ccc(F)cc3)c(=O)n12	-0.12	-1.2
CCn1nc(-n2cnnc2)c(NC(=O)Nc2ccc(C)c(C)c2)c1C	-1.9	1.2
Cc1ccccc1-c1noc2ncnc(NC3CC3)c12	nt	1.6
CCOC(=O)C1CCN(Cc2ccccc2)CC1=O (centres undefined)	-1.8	nt
Cn1nc(C(=O)N2CCC(N3CCCCC3)CC2)c2c1-c1ccccc1SC2	-1.3	0.34
O=C(CSc1nc2[nH]ncc2c(=O)n1-c1ccccc1)Nc1ccc(F)c(F)c1	-0.87	nt
O=C1/C(=C/c2cccc3ccccc23)Nc2ccccc21	-0.45	nt
Cc1oc(-c2ccccc2Cl)nc1CSc1nc2ncccc2[nH]1	nt	0.85
Cc1c(C(=O)N2CCN(c3ccc(Cl)cc3)CC2)sc2nc3n(c(=O)c12)CCCCC3	nt	0.77
CC(C)(O)[C@@H]1Cc2cc3ccc(=O)oc3cc2O1	nt	0.07
O=C1c2cccnc2C(=O)N1Cc1ccc(S(=O)(=O)NCc2ccccc2Cl)s1	nt	0.25
Cc1ccc(Cl)cc1-n1ncc2c(N3CCC(C)CC3)ncnc21	nt	1.2
Cc1cc(F)ccc1S(=O)(=O)Nc1cccc(N2CCCS2(=O)=O)c1	nt	-1.3
Cc1ccccc1CN1C(=O)C(O)(c2c[nH]c3ccccc23)c2ccccc21 (centres undefined)	1.4	-1.9
Cc1ccc(-c2noc3ncnc(NCc4cccc(Cl)c4)c23)cc1	nt	2.3
O=C(c1ccccc1)C1CCN(S(=O)(=O)c2ccc(Cl)cc2)CC1	0.38	nt
O=C(Nc1nc2cc(NS(=O)(=O)c3cccs3)ccc2s1)C1CCCCC1	nt	1.8

Continued:
SMILES	CDC25B CDK2 inh	HIV TAR-Tat
CN(C)c1ncc(C(=O)NCc2ccccn2)cn1	nt	2.8
O=C(Nc1cc(F)ccc1F)C1CCN(c2nc3ccccc3n3cccc23)CC1	nt	0.56
Cc1nc2scc(C)n2c(=O)c1S(=O)(=O)N1CCCC1	-1.2	1.8
O=C(c1c(F)cccc1F)n1c(=O)oc2cc(Cl)ccc21	nt	-7.1
CCOC(=O)CNC(=O)c1c(OC)cccc1OC	-0.36	nt
CCc1cccc(-n2nnc(S(=O)(=O)c3ccccc3)c2C)c1	-0.83	1.3
Cn1c(SCCOc2ccccc2F)nnc1-c1ccc2c(c1)OCCCO2	nt	-0.26
CCCN(Cc1cccs1)C(=O)Nc1ccc(F)c(Cl)c1	0.31	-2
COCCCNc1nc(NCc2cccc(Cl)c2)c2cnn(C)c2n1	nt	0.67
CC1=C(c2ccc(C)c(C)c2)S(=O)(=O)N=C1N1CCOCC1	-0.21	-0.16
COc1ccc(Cl)cc1NS(=O)(=O)c1ccc2c(c1)NC(=O)CCS2	nt	0.83
CC(C)CCN(Cc1ccco1)S(=O)(=O)c1csc(C(N)=O)c1	nt	-0.23
CC(C)(C)NC(=O)CN1C(=O)c2ccccc2S1(=O)=O	-0.01	0.45
Cc1cc(NC2CCCCC2)n2ncnc2n1	-2.1	2.5
CC(C)OC(=O)C1C(=O)CC(C)(O)C(C(=O)OC(C)C)C1c1ccc(F)cc1 (centres undefined)	0.39	1
COCCn1c(COc2ccccc2)nc2ccccc21	-1.3	-1.1
Cc1ccc2ncc3c(-c4ccc(F)cc4)n[nH]c3c2c1	0.6	2
COC(=O)C1=C(C)NC2=C(C(=O)CC(c3ccc4c(c3)OCO4)C2)C1c1ccc(Br)cc1 (centres undefined)	0.56	1.5
CC1=NN(c2ccc(-c3csnn3)cc2)C(=O)C1	0.89	nt
CC(C)N(C(=O)CSc1nc2ccccc2s1)c1ccccc1	-2.2	-0.23
CC1=CC(C)(C)N(C(=O)COc2nc3ccccc3s2)c2ccccc21	-1.5	-0.5
